From PubChem
eIF4H FP inh = inhibitors of RNA binding by human eIF4H; Q15056; eIF4H fluorescence polarization binding assay; inhibition, % at 35 µM; 0.94% of 290,000 active;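 active = 50% or more with normal probe brightness, or confirmed in later tests; about a fifth of its hits are not listed in these tables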;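 note: calls also rest on retests at 20 µM and on dose response follow-up; 0% = protein and probe with vehicle and 100% = probe without protein; strong numbers were not always called active; many hits fall short of the cut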
UUG fidelity = modulators of start codon recognition fidelity in yeast | activity score, % at 18.7 µM | 0.13% of 350,000 active | S. cerevisiae UUG-firefly luciferase reporter, luminescence/redox ratio | AID 602363;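 active = replicate mean at a twofold rise or more, about +100% in these data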;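 note: firefly luciferase made from a UUG start codon reports start codon fidelity; reporter light over untreated wells divided by growth signal over untreated wells; some hits fall short of that in this replicate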
CSC inhib = blocks cancer stem cells. 1.1% of 300,000 active. cancer stem cell-like cells viability, luminescence. inhibition, % at 7.5 µM;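 active = mean at 75% or more and at least half the replicates too; tested in HMLE shEcad cells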;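 note: 0% = median of negative and 100% = median of positive control wells; the first replicate is given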
Rce1 inhib = yeast Ras-converting enzyme inhibition. calls only. yeast membranes, quenched prenylated peptide cleavage fluorescence. 0.27% of 290,000 active. Q03530;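 active = fall in fluorescence gain of 50% or more versus controls, with final raw signal at or below 3038400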;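 note: plate controls were neutral control wells for no effect and wells lacking membranes for full effect; tested at 10 µM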
PABP polyA inh = blocks human PABP binding to poly(A) RNA | inhibition, % at 35 µM | AID 2014 | 1% of 290,000 active | fluorescence polarization;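 active = 50% or more with normal probe brightness, or confirmed in later tests; about a fifth of its hits are not listed in these tables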;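 note: calls also rest on retests at 20 µM and on dose response follow-up; controls were probe without protein and protein plus probe with vehicle; some compounds called inactive have numbers as strong as hits; many hits fall short of the cut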
Target sequence (P11940 whole entry, looked up): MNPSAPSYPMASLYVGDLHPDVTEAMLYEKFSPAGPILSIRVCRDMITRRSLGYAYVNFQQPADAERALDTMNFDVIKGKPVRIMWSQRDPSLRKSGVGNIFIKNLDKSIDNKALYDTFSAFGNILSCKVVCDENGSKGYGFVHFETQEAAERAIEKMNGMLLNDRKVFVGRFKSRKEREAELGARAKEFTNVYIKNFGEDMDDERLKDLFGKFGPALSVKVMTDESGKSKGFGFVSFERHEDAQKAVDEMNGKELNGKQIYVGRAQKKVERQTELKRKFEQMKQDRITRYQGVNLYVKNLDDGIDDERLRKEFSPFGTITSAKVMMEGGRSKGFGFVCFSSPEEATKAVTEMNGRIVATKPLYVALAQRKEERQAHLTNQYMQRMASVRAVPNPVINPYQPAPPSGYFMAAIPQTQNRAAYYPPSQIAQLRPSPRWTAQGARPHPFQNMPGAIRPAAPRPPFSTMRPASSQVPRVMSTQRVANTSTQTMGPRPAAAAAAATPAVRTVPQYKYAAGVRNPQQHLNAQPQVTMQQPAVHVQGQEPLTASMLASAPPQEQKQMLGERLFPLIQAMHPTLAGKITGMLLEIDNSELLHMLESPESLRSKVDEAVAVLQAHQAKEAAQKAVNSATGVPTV
MT1-MMP act inh = MT1-MMP (human) activation inhibition | GFP/RFP ratio change, % at 20 µM | HT1080 RFP-PRO-GFP cells, GFP/RFP ratio fluorescence, overnight; percent of plate control window, DMSO zero | 0.061% of 360,000 active | AID 651647;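 active = GFP/RFP ratio change of at least 30% with cell ATP level not reduced by more than half and red fluorescence within 50% of control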; note: strong numbers were not always called active
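Test system: HT1080 RFP-PRO-GFP cells; Benchmarks: DMSO and RFP-L50D-GFP cell wells; Timing: cells overnight before dosing, compound overnight, 37 °C, 5% CO2; Compound: one 20 µM compound dose with 1% DMSO; Read-out: GFP/RFP fluorescence ratio.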
Env fusion inh = blocks HIV Env-driven cell-cell fusion | 1.1% of 360,000 active | HeLa-JRFL Env/CEM21 cell fusion, luciferase | inhibition, % at 12.3 µM;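 active = mean replicate inhibition score of at least 50 and every replicate individually at or above 50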;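 note: 0% = plate neutral controls and 100% = maraviroc near 300 nM; one replicate is shown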
eIF4H FP inh retest = second read-out of eIF4H FP inh, no call of its own (marks repeat the call); inhibition, %; compound at 20 µM; confirmation average;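 mean of two retest wells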
PABP polyA inh retest = further read-out of PABP polyA inh, marked with its call; inhibition, %; compound at 20 µM; confirmation repeats;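 mean of two retest wells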
MT1-MMP act inh RFP = also measured in MT1-MMP act inh; calls as there; RFP signal change, %; measured here: RFP expression control read;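 0 = vehicle wells; hits needed this value within 50% of zero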
Numbers without * were called inactive; i = inactive; . = not tested or not shown; & = joins results of further samples.

SMILES | eIF4H FP inh | UUG fidelity | CSC inhib | Rce1 inhib | PABP polyA inh | MT1-MMP act inh | MT1-MMP act inh RFP | Env fusion inh | others
CCCCN(C)C(=O)CCCCn1c(=O)[nH]c2cc(OCC)c(OCC)cc2c1=O | 2 | -2 | 20 | i | 4 | -2 | 0 | -163
CNC(=O)C1CC(=O)N(c2ccc(OCC(=O)Nc3ccc(OC)cc3)cc2)C1 (configuration not stated) | . | -8 | 2 | . | . | -2 | 1 | .
Cc1cc(OC(C)C(=O)NCC(O)c2ccccc2)c2c(C)cc(=O)oc2c1 (configuration not stated) | -6 | -33 | -25 | i | -2 | -2 | -1 | -52
Cc1ccccc1NC1=C(C(=O)c2ccccc2)N(C)S(=O)(=O)c2ccccc21 | -10 | -15 | 39 | i | -2 | -1 | -3 | -56
CCOC(=O)C1=C(CS(=O)(=O)c2ccc(F)cc2)NC(=O)NC1c1cc(OC)c(O)c(OC)c1 (configuration not stated) | 3 | -10 | 0 | i | 13 | 1 | 3 | 4
O=C1Nc2ccccc2C1=Nc1ccc(Br)cc1 | 9 | -6 | 52 | . | 5 | -1 | 0 | 9
CC(C)(C)CC(C)(C)NCC(O)COc1ccc2c(c1)CCC2 (configuration not stated) | . | -4 | 39 | i | . | -5 | -7 | .
Cc1cccc(C)c1NC(=O)C1CCCN1S(=O)(=O)c1ccccc1 (configuration not stated) | -16 | 2 | -4 | . | -3 | 6 | 4 | 0
Nn1c(Cc2ccccc2)nc2ccccc2c1=O | . | -14 | -17 | i | . | -2 | -5 | 6
O=C(O)CN(CC(=O)O)CC(=O)O | . | -10 | . | . | . | 6 | 4 | 0
CCCCC(=O)NCCNC(=O)c1cc(OCC(F)(F)F)ccc1OCC(F)(F)F | 6 | 2 | . | i | -2 | 6 | 4 | .
CCCCC/C=C/C1=CC(=O)C[C@H](c2ccc(OC)cc2)C1 | . | -11 | 13 | . | . | 0 | 1 | 7
Cc1ccc(NC(=O)c2ccc3c(c2)CCN3S(C)(=O)=O)cc1 | . | -21 | . | . | . | 4 | 1 | -17
Cc1ccc2c(c1)c1c3n2CCCNC3CCC1 (configuration not stated) | 4 | -9 | 10 | i | -3 | 1 | -2 | -28
COc1ccccc1NC(=O)CSc1nc2ccccc2c(=O)n1CCNC(C)=O | 3 | 2 | -10 | i | 7 | 6 | 7 | -20

Two compounds drawn at random from those above:
SMILES | eIF4H FP inh | UUG fidelity | CSC inhib | Rce1 inhib | PABP polyA inh | MT1-MMP act inh | MT1-MMP act inh RFP | Env fusion inh | others
Cc1ccc(NC(=O)c2ccc3c(c2)CCN3S(C)(=O)=O)cc1 | . | -21 | . | . | . | 4 | 1 | -17
CCCCN(C)C(=O)CCCCn1c(=O)[nH]c2cc(OCC)c(OCC)cc2c1=O | 2 | -2 | 20 | i | 4 | -2 | 0 | -163

(more compounds)
SMILES | eIF4H FP inh | UUG fidelity | CSC inhib | Rce1 inhib | PABP polyA inh | MT1-MMP act inh | MT1-MMP act inh RFP | Env fusion inh | others
COc1cc2cc(CN(CCN3CCCC3)C(=O)Nc3ccccc3Cl)c(=O)[nH]c2cc1OC | -4 | -12 | . | . | 13 | -1 | 3 | .
CC(C)(C)n1nc2c(c1NC(=O)Cc1ccccc1)CS(=O)(=O)C2 | -11 | -12 | 0 | i | -8 | 2 | 2 | -14
Cc1ncsc1CCC(=O)N1CCCC(Nc2ccc(F)c(F)c2)C1 (configuration not stated) | -8 | -6 | 1 | . | -1 | -3 | 1 | 10
Cc1cccc(NC(=O)c2ccc(S(=O)(=O)N3CCC(C)CC3)cc2)n1 | -11 | 1 | -2 | i | -6 | -5 | -19 | 34
COc1ccc(OC)c(S(=O)(=O)Nc2cccnc2)c1 | -3 | . | -9 | i | -3 | 3 | 3 | 10
Cc1cccc(C2Nc3cccc4cccc(c34)N2)c1 | 53* | -6 | -2 | i | 17 | 1 | 6 | -4 | eIF4H FP inh retest=75*;PABP polyA inh retest=48
O=C(CSc1ncccc1-c1nc2ccccc2[nH]1)Nc1ccc2c(c1)OCCO2 | -7 | -31 | 2 | i | -6 | 0 | 0 | .
COc1ccc(NC(=O)CSc2nc(O)cc(=O)n2-c2ccccc2)cc1 | -11 | -14 | -16 | i | -1 | -3 | -2 | -5
CCCC[N+](CC#Cc1ccccc1)(CCCC)CCCS(=O)(=O)[O-] | -1 | . | -1 | i | -11 | -1 | 1 | 10
COc1ccc(-c2csc(C(O)c3ccc(F)c(F)c3)n2)cn1 (configuration not stated) | . | -2 | . | . | . | 6 | -3 | 9
CCc1c(C2(O)CCCCC2)[nH]c2ccc(C#N)cc12 | . | -18 | 20 | i | . | 0 | -8 | -1
Cc1ccc(S(=O)(=O)c2nnn3c2nc(NC2CCN(Cc4ccccc4)CC2)c2ccccc23)cc1C | -27 | -16 | 21 | i | -52 | 4 | 1 | .
CC(=O)N1CCN(S(=O)(=O)c2cccc(C(=O)OCC(=O)N(Cc3ccccc3)C(C)(C)C)c2)CC1 | . | 19 | 46 | . | . | -1 | -2 | 2
CCCC[C@@H]1CNCCN1CC1(c2ccccc2)CC1 | . | -15 | -10 | i | . | -6 | -3 | -15
c1ccc(CCCc2nc(-c3cccnc3)no2)cc1 | -2 | -1 | 0 | i | -15 | 0 | -7 | -5
COc1ccc(NC(=O)CCN2C(=O)[C@@H]3[C@H](C2=O)[C@H]2C=C[C@@H]3C2)cc1 | -4 | 1 | -6 | i | 4 | 1 | 1 | 9
Cc1cccc(N2CCN(C(=O)c3ccoc3C)CC2)c1C | -3 | . | 7 | i | 8 | -2 | 1 | 13
CN1CCN(/N=C/c2ccc(Br)cc2)CC1 | 0 | -4 | 2 | i | 0 | 3 | -1 | 1
Fc1ccc(-n2nnc(-c3ccnc4ccccc34)n2)cc1 | -11 | -19 | 6 | i | -7 | -3 | 2 | -271
O=S(=O)(c1ccc(F)cc1)N1CCN(CC(O)COc2ccccc2F)CC1 (configuration not stated) | 16 | -2 | -15 | i | -3 | -1 | -3 | 0
O=C(Nc1ccccc1C(=O)N/N=C/c1ccccc1)c1ccco1 | 0 | -7 | 11 | i | -1 | 7 | 5 | 1
COc1cc(C(=O)NNC(=S)NC(=O)c2ccccc2C)cc(OC)c1OC | 16 | . | 13 | i | 0 | 9 | 1 | .
Cc1ccc(-c2csc(NC(=S)NC(=O)c3cc4ccccc4o3)n2)cc1 | -3 | -10 | -10 | i | -9 | 1 | -6 | 1
COc1c(/C=N/Nc2nc(N3CCCCC3)nc(N3CCCCC3)n2)cccc1[N+](=O)[O-] | 0 | 6 | -10 | i | -15 | -2 | -11 | -43
CN1CCn2c1nc(N1CCCCC1)nc2=O | 2 | -7 | -3 | i | 6 | 3 | 5 | -64
O=C(Oc1cccnc1)c1cc(S(=O)(=O)N2CCOCC2)ccc1Cl | 3 | -34 | 4 | i | 7 | 1 | 1 | .
COc1ccc(C(=O)Sc2nncc3ccccc23)cc1 | 1 | . | -10 | . | 3 | 5 | 5 | 0
CCOC(=O)Cc1csc(SCc2cc(=O)oc3cc(O)ccc23)n1 | 6 | . | -4 | i | -2 | -4 | 2 | 8
O=C(OCC(=O)N1CCN(S(=O)(=O)c2ccc(Cl)cc2)CC1)C1CCC1 | . | -14 | 22 | i | . | 1 | 1 | -4
O=C1CCCN1CN1CCCCC1 | 4 | -18 | -10 | i | -5 | -5 | 1 | .
O=C(c1cccs1)N1C[C@H](n2cc(C3CC3)nn2)[C@@H](O)C[C@@H]1c1ccc(Cl)cc1 | . | 2 | . | . | . | 3 | 3 | -24
O=C(NC1CCCC1)C(c1ccc(F)cc1)N(C(=O)c1csnn1)C1CC1 (configuration not stated) | -4 | -16 | -3 | i | -3 | -4 | 0 | 4
COC(=O)c1ccc(NC(=O)c2ccc3c(c2)C(=O)N(C)C3=O)cc1 | -11 | -15 | -15 | i | 4 | -5 | 0 | 10
COc1ccc(S(=O)(=O)N2CC(C)N(C(=O)N(C)C)C2C)cc1 (configuration not stated) | 7 | -13 | -7 | i | 15 | -2 | 3 | -9
COC(=O)c1ccccc1NC(=O)CN(Cc1ccccc1)S(C)(=O)=O | -6 | -20 | -8 | i | -13 | 5 | -3 | 17
Nc1nnc(-c2cccc(Cl)c2Cl)c(N)n1 | -5&-13 | -11 | -6 | i | 4&-4 | 3 | 6 | .
CN(C)C(CNC(=O)C1CCN(S(=O)(=O)c2cc(Cl)ccc2Cl)CC1)Cc1ccccc1 (configuration not stated) | . | 0 | . | . | . | -2 | 2 | -3
Cc1ccc(OCC(=O)N/N=C\c2ccc(C)o2)c(C)c1 | 13 | -15 | -12 | i | -8 | 3 | 4 | -8
C=CCOc1ccc(C2/C(=C(\O)c3ccc4c(c3)OCCO4)C(=O)C(=O)N2CCCN2CCOCC2)cc1 (configuration not stated) | -4 | -9 | 5 | i | 2 | -3 | 4 | -11
O=C(c1ccc(F)cc1)N1CCN(c2ncccn2)CC1 | 13 | -14 | 2 | i | 19 | 3 | 3 | -47
COc1ccc(Br)cc1C(=O)N/N=C/c1ccc2c(c1)n(C)c(=O)n2C | -8 | -10 | 2 | i | 2 | 4 | 7 | 5
COCCN1Cc2cccc(C(=O)Nc3ccc(-c4nc5ccccc5[nH]4)cc3)c2C1=O | 7 | -7 | . | i | 20 | -5 | 1 | 12
CCOC(=O)c1cnc(SCc2ccc(C)cc2)nc1N | -4 | -7 | . | i | 5 | 1 | -1 | .
Cc1nn(C)c2nc(-c3cccs3)cc(C(F)(F)F)c12 | 0 | . | 5 | i | -1 | 0 | 3 | 4
COc1ccc2cc(-c3cc(C(=O)O)c4ccccc4n3)ccc2c1 | 12 | -20 | 34 | i | -2 | . | . | -65
O=C(c1ccc(N2C(=O)C3CC=C(Cl)CC3C2=O)cc1)N1CCOCC1 (configuration not stated) | 1 | . | -6 | i | -1 | 2 | 5 | -72
COc1ccc(NS(=O)(=O)c2ccc(Br)s2)cc1OC | -9 | 20 | -4 | i | -4 | 4 | -13 | 3
Cc1cc(C)c(S(=O)(=O)N2CCN(c3ccc([N+](=O)[O-])c(NCC4CCCO4)c3)CC2)c(C)c1 (configuration not stated) | 0 | -21 | . | i | 0 | 8 | -1 | .
O=[N+]([O-])c1ccc(N2CCN(Cc3cccc([N+](=O)[O-])c3)CC2)cc1 | -7 | 4 | 3 | i | 1 | 8 | -14 | 29
C/C(=N\N1CCCCC1)c1ccccc1O | -2 | -8 | 0 | i | 3 | 1 | 1 | -4
Cc1ccc(S(=O)(=O)Nc2ccccc2C(N)=O)cc1 | -10 | -16 | -22 | i | 1 | 3 | 5 | -1
COc1ccc(C2CC(C(F)(F)F)n3nc(C(=O)NCCCn4ccnc4)cc3N2)cc1OC (configuration not stated) | -5 | -25 | -3 | i | 4 | -5 | -1 | .
Cc1ccc(S(=O)(=O)N2CCC(C(=O)N[C@@H](C)C(=O)NCc3ccco3)CC2)cc1 | 13 | . | -3 | i | 6 | 2 | 3 | -7
COc1cccc(CNC(=O)Cn2ccc3cc(S(=O)(=O)N4CCCC4)ccc32)c1OC | -4 | -5 | 1 | i | 0 | 2 | -4 | 12
C/C(=N/Nc1ccc(C)cc1)C1(C)N(O)C(C)(C)C(c2ccco2)=[N+]1[O-] (configuration not stated) | 4 | -20 | -6 | i | 3 | 4 | 5 | -7
C[C@H]1CN([C@@H](C)CO)C(=O)CCCn2cc(nn2)CO[C@@H]1CN(C)S(=O)(=O)c1ccc(Oc2ccccc2)cc1 | . | 5&9 | . | . | . | 1 | 0 | 38
CCC/C=N/Nc1nnc(Cc2ccc(OC)c(OC)c2)c(=O)[nH]1 | -4 | -15 | 2 | i | 7 | 0 | 1 | 13
c1ccc(CSc2ccc(-c3cccs3)nn2)nc1 | 21 | . | -3 | i | 0 | 0 | 1 | -15

Not all compounds are listed, so the mix of outcomes need not match the whole.
